# NPYLR7 ag – activates Aedes aegypti NPYLR7 receptor | HEK293T NPYLR7/Galpha15, GCaMP6s calcium fluorescence | activation, % at 10 µM | actives 0.15% (n = 270,000) | AID 1259423; in the data active = activation above about 40%;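 note: 0% = vehicle and 100% = reference agonist at the receptor; some compounds past the cut are filed as inactive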
# NPYLR7 ag max-min – recorded beside NPYLR7 ag, whose call it bears; activation, %; measured here: Max-Min RFU normalised activation; some inactives read as strong as hits;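 span of the calcium signal over five minutes; 0% = vehicle and 100% = native peptide agonist; compound fluorescence can raise it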
# An asterisk follows results filed as active; & = joins results of further samples.
SMILES,NPYLR7 ag,NPYLR7 ag max-min
Cc1ccc2nc(C)c(NC(=O)c3ccccc3)c(=O)n2c1,4,1
COCCNC(=O)Cn1nc([N+](=O)[O-])c(Br)c1C,-14,-22
COCCCNC(=O)c1cc2n(n1)CCN(Cc1c(F)cccc1Cl)C2=O,-1,-7
CC(C)=CC(=O)N1CCC(n2cnc3ccccc32)CC1,3,14
O=C1CCC(C(=O)N2CCCC(CO)(Cc3ccc(F)cc3)C2)=NN1 (stereo not drawn),4,5
COc1cccc(CO[C@]2(C(=O)NCC3CCCO3)CC(OCC3CC3)[C@H](O)[C@H](O)C2)c1 (stereo partly drawn),1,6
O=C1C(C(c2ccccc2Cl)N2CCOCC2)Sc2nc(-c3ccco3)nn21 (stereo not drawn),-4,-6
CCOc1cccc2cc(C(=O)Nc3nnc(-c4ccno4)o3)oc12,2,-1
CC(C)Oc1ccc(CN2CCC2(C)C(=O)NCc2ccc3c(c2)OCO3)cc1 (stereo not drawn),12,4
CC1CC(C)(C)Cc2c1sc(NC(=O)c1ccco1)c2C#N (stereo not drawn),0,0
CCNC(=O)N(CC(=O)N(Cc1ccc2c(c1)OCO2)Cc1sccc1C)C1CC1,12,14
COc1cc(SC)ccc1C(=O)NC1(C(=O)O)CCCCC1,-3,-6
COc1ccc(N2CCN(C(=O)C3CC=CCC3C(=O)N3CCC(O)(Cc4ccccc4)CC3)CC2)cc1 (stereo not drawn),-10,-15
COc1ccc(N(CN2C(=O)c3ccccc3C2=O)C(=O)C(F)(F)F)cc1,-4,-6
COc1ccccc1CCCNC(=O)C1CCC(=O)N(CCc2ccccn2)C1 (stereo not drawn),-3,-4
CSc1ccc(Cn2c(C)c(C(=O)NCc3cccc(C)c3)sc2=O)cc1,12,4
CC(=O)N(C(C)=O)c1ccc2c(c1)C(C)(C)C(C)N2C (stereo not drawn),-1,2
CN(CCCNC(=O)C(=O)c1ccc(C2CCCCC2)cc1)c1ccccc1,-3,-5
CN(Cc1ccc(-n2cccn2)cc1)Cc1sc(N(C)C)nc1Cl,16,9
Cc1oc(-c2ccccc2Cl)cc1CO,5,5
CCc1ncc(C(=O)Nc2c(C)c(CC)nn2-c2ccccc2)cn1,4,15
Cc1ccccc1SCC(=O)N1CCCN(C)C2(CCN(C)CC2)C1,3,2
c1ccc(-c2cnnc(NCC3(N4CCCCC4)CCCC3)n2)cc1,7&1,3&-3
Cc1nc(C(C)NC2CCN(C3CC3)CC2)c(C)s1 (stereo not drawn),-21&1,-22&1
O=C(NCc1cccs1)c1cccc2ccccc12,0,-4

# Entries of single compounds from above:
# CN(CCCNC(=O)C(=O)c1ccc(C2CCCCC2)cc1)c1ccccc1 as listed: NPYLR7 ag: -3; NPYLR7 ag max-min: -5
# COc1ccc(N(CN2C(=O)c3ccccc3C2=O)C(=O)C(F)(F)F)cc1 as listed: NPYLR7 ag: -4; NPYLR7 ag max-min: -6

# Returning to the listing, repeating the six entries before the break.
SMILES,NPYLR7 ag,NPYLR7 ag max-min
Cc1oc(-c2ccccc2Cl)cc1CO,5,5
CCc1ncc(C(=O)Nc2c(C)c(CC)nn2-c2ccccc2)cn1,4,15
Cc1ccccc1SCC(=O)N1CCCN(C)C2(CCN(C)CC2)C1,3,2
c1ccc(-c2cnnc(NCC3(N4CCCCC4)CCCC3)n2)cc1,7&1,3&-3
Cc1nc(C(C)NC2CCN(C3CC3)CC2)c(C)s1 (stereo not drawn),-21&1,-22&1
O=C(NCc1cccs1)c1cccc2ccccc12,0,-4
CC(=O)NCCNc1nc(C)cc(N(C)C)n1,2,2
CN1CCC2(CCCN(c3cncc(C(=O)N4CCOCC4)n3)C2)C1 (stereo not drawn),0,5
Cc1cc(C(F)(F)F)nc(CCNc2ncnc3c2CCNC3)n1,1,-8
CC(C)C(=O)Nc1cc2c3c(c1)C(C)C(=O)N3CCC2 (stereo not drawn),6,1
CCNC(=O)N1CCN(C(=O)c2cc3ccsc3n2CCCc2ccccc2)CC1C (stereo not drawn),-3,2
Cc1ccc([N+](=O)[O-])cc1NC(=O)c1c(-c2ccccc2Cl)noc1C,5,6
COc1ccc(C=C(C#N)S(=O)(=O)c2cc(Br)ccc2Br)cc1OC,6,10
Cc1ccc(OCC2c3ccsc3CCN2C(=O)CN(Cc2ccco2)C(=O)c2ccco2)cc1 (stereo not drawn),-2,3
Cc1ncsc1C(=O)N(CC1CCN(C2Cc3ccccc3C2)CC1)CC1CCCO1 (stereo not drawn),19,6
O=C(O)C1COC2(CCN(C(=O)Cc3cccs3)CC2)N1C(=O)c1ccco1 (stereo not drawn),14,27
O=C(CSc1nc2[nH]ncc2c(=O)[nH]1)NCc1ccccc1Cl,-21,-17
CC(C)C1=CC(=NOc2ccc([N+](=O)[O-])cc2[N+](=O)[O-])C=C(C(C)C)C1=O,-6,-9
C=CC[C@@H]1CC=C[C@@H](C)N1C(=O)CCC(=O)NC1CCCC1,17,12
C=CCNC(=O)CN(Cc1ccccc1)C(C)CN1CCOCC1 (stereo not drawn),8,5
Fc1ccccc1-c1noc2nc(NCC3CCOCC3)ccc12,-2,-5
COc1ccc(COc2cc3oc(=O)c4cc(C(C)O)ccc4c3cc2OC)cc1 (stereo not drawn),-4,-9
CCOc1nc(C#N)nc(N2CCOCC2)n1,-2,-2
NC(=O)C1CC(C(=O)Nc2nncs2)=NN1c1ccc(F)cc1 (stereo not drawn),9,3
CCc1ccc(-c2nccn2C(C)CCn2cccn2)o1 (stereo not drawn),20,3
N#CC1C(=N)OC2=C(C(=O)CCC2)C12C(=O)Nc1ccc([N+](=O)[O-])cc12 (stereo not drawn),33,33
COC(=O)c1ccc(-c2noc(CN3CCCC3c3ccc(F)cc3)n2)cc1 (stereo not drawn),0,-4
Cc1cc(Cl)cc2c3c([nH]c12)CCC(NC(=O)[C@@]1(C)C[C@H]2C=C[C@@H]1C2)C3 (stereo partly drawn),21,8
O=C(CCN1CCCC(c2ccn[nH]2)C1)Nc1ccccc1 (stereo not drawn),2,0
Oc1cccc(-c2cn(C(Cn3ccnc3)c3ccccc3)nn2)c1 (stereo not drawn),12&-5,8&-7
O=C(CC1CNCCO1)N1CCC(c2n[nH]c(=O)n2Cc2ccccc2)CC1 (stereo not drawn),2,1

# Copied from the list.
# `N#CC1C(=N)OC2=C(C(=O)CCC2)C12C(=O)Nc1ccc([N+](=O)[O-])cc12` (stereo not drawn) @ NPYLR7 ag max-min: 33
# `COc1ccc(C=C(C#N)S(=O)(=O)c2cc(Br)ccc2Br)cc1OC` @ NPYLR7 ag: 6

# Following part:
SMILES,NPYLR7 ag,NPYLR7 ag max-min
CC(C)c1nnnn1CC(=O)NC(C#N)c1ccc(C(C)(C)C)cc1 (stereo not drawn),1,-1
COCCCNC(=O)CSc1nc(Cl)cc(N2CCN(C(=O)CC(C)C)C(C)C2)n1 (stereo not drawn),-4,1
Cc1cccc(CN2CCN(c3nc(CCN)nc4ccccc34)C(C)C2=O)c1 (stereo not drawn),8,4
CC(C)NC(=O)Cn1nnc(-c2ccccc2)c1COc1ccc2ccccc2c1,5,3
CN(CCNC(=O)C(F)(F)F)C(=O)CCCc1cn(S(=O)(=O)c2cccs2)c2ccccc12,-13,-18
CN1CCN(Cc2csc(-c3ccoc3)n2)c2ccccc21,2,1
Cc1ccc(N2C3=[N+](CCCCC3)CC2(O)c2ccc(C)cc2)cc1 (stereo not drawn),7,8
CCN(CC)CCNC(=O)c1cc(S(C)(=O)=O)ccc1OC,-17&1&1,-21&-2&7
CCc1nc2n(n1)C(=O)C(C(c1ccccc1Cl)N1CCC(C(=O)OC)CC1)S2 (stereo not drawn),1,0
Cc1nc2ncnn2c(C)c1CCC(=O)N(C)Cc1ccc(Cl)cc1Cl,-5,-7
CS(=O)(=O)c1cccc(NC(=O)COc2cccc(Br)c2)c1,-1,1
COc1ccc(C(=O)Oc2ccc(-c3nc4ccccn4c3NC(C)(C)CC(C)(C)C)cc2)cc1,8&0,5&7
CCCc1cc(C(=O)N2CCC3(CC2)CN(C)CCN3C)n[nH]1,7,4
CN(C)CC1(O)CCCN(Cc2ccccc2OCC(=O)O)CC1 (stereo not drawn),-15,-18
O=C(Nc1ccc2c(c1)CN(CCCn1cccn1)CC2)c1ccccc1Cl,11,13
COCCOc1cc2c(cc1CNCC1CN(C)CCO1)OCO2 (stereo not drawn),-1,-2
O=C(O)CN1C(=O)/C(=C\c2ccc(-c3ccc(Cl)cc3Cl)o2)SC1=S,-4,-8
CCc1cccc2c(C(CC(=O)N3CCN(C/C=C/c4ccccc4)CC3)c3cccc(C(F)(F)F)c3)c[nH]c12 (stereo not drawn),2,4
COC(=O)Cc1cc(C2CCN(Cc3c(C)nn(C)c3Cl)CC2)n[nH]1,3,1
N#CC(=Cc1cc2c(cc1[N+](=O)[O-])OCO2)c1nc2ccccc2[nH]1,4,7
N#Cc1c(Cl)nsc1N1CCN(c2ccc(O)cc2)CC1,-4,-4
CN(Cc1ccn(C)c(=O)c1)Cc1ccccc1Br,3,2
Cc1ccccc1CSc1nnc(CNC(=O)c2ccc3c(c2)OCO3)n1-c1ccc(Cl)cc1Cl,-4,7
CC(=O)N1CCc2cc(NC(=O)Cc3cccc(C(F)(F)F)c3)ccc21,2,0
O=C(c1cnn(-c2ccccc2)n1)N1CCCC(c2nnc(-c3ccccc3F)s2)C1 (stereo not drawn),-8,-10
# Carrying on.
SMILES,NPYLR7 ag,NPYLR7 ag max-min
CN1CCC2(CCN(C(=O)CCOc3ccccc3)CC2)C1,-1,3
CCCCCc1ccc(C(=O)N(CCCOC)CC(=O)Nc2cc(C(C)(C)C)nn2-c2ccccc2C)cc1,-4,4
Cc1ccc(S(=O)(=O)N(CC(=O)NCc2ccccc2)C(=O)N2CCN(C)CC2)cc1,12,5
COc1ccc(S(=O)(=O)NCC2CCCN(C(=O)c3cscn3)C2)cc1 (stereo not drawn),5&-6,8&-7
Cc1nc(Cl)sc1C(=O)NCC(C)(C)CCS(C)(=O)=O,5,5
N#CCSc1ccccc1NC(=O)Cn1nnn(-c2ccccc2)c1=O,5,2
S=C(NC12CC3CC(CC(C3)C1)C2)N1CCOCC1,0,-1
CCc1ccc[n+](C2=C(c3c(C)[nH]n(-c4ccc(F)cc4)c3=O)C(=O)N(CCOC)C2=O)c1,1,8
Cc1cccc(C(=O)NC2CCN(c3ccccc3C(=O)NCCc3cccs3)CC2)c1,4,7
CCCC1CCCN(C(=O)Cc2sc(=S)[nH]c2C)CC1 (stereo not drawn),4,2
O=C(Cc1ccc2c(c1)CCO2)NCCc1ccccc1,0,0
COc1ccc(S(=O)(=O)Nc2ccc(S(=O)(=O)Nc3nccs3)cc2)cc1C,-7,-13
CC(C)SC(NC(=O)OCc1ccccc1)C(=O)NCc1ccco1 (stereo not drawn),-2,-6
CCOC(=O)N1CCN(C(=O)CSc2nc(Cl)cc(N3CCN(C(=O)c4ccccc4)C(C)C3)n2)CC1 (stereo not drawn),-3,-3
CCc1ccc(Oc2cc(F)nc(N)n2)cc1,4,-3
COc1cc(=O)n(-c2ccc(C)cc2)nc1C(=O)NC(C)(C)C,9,3
O=C(CSc1ccccc1)N1CCC(Cc2ccc(-c3ccccc3)cc2)CC1,3,12
COc1ccc(C(=O)NCc2nnc(SCC(=O)N3CCc4ccccc43)n2-c2ccc(Cl)c(Cl)c2)c(OC)c1,-6,1
CCN1CCN(S(=O)(=O)c2ccc(OC)c(N3CCN(S(=O)(=O)c4ccc(Br)cc4)CC3)c2)CC1,2,1
COC(=O)c1ccc(CN(Cc2sccc2C)C2CC2)o1,-3,3
CCCc1nnc2c(C(=O)NCCC(c3ccccc3)c3ccccc3)cccn12,-5,-9
COc1cc(C=NN2CCN(C3c4ccccc4-c4ccccc43)CC2)cc(Br)c1O,-7,-8
CN(CCCNC(=O)C=Cc1ccc(N2CCCC2=O)cc1)c1ccccc1,4,-1
COc1cc(F)c(C(=O)N2CCOC(COc3cccc(C(F)(F)F)c3)C2)c(F)c1 (stereo not drawn),17,17
CC(CCN(C)C(=O)C1(C(N)=O)CC1)N1CCCC1 (stereo not drawn),3,1
# The list goes on:
SMILES,NPYLR7 ag,NPYLR7 ag max-min
CC12CCC(C(=O)N3CCCCC3)(CC1=O)C2(C)C (stereo not drawn),6&0,6&-3
Cc1cc(NC(=O)CN(C)c2nc(C(F)(F)F)nc3ccccc23)no1,6,2
Cc1cc(C)n2nc(NC(=O)NC(C)CC(=O)OC(C)(C)C)nc2n1 (stereo not drawn),3,8
Cc1cc(C)c2c(C3Oc4ccccc4C3O)cc(=O)oc2c1C (stereo not drawn),6,0
CC(c1nc(C(C)(C)C)no1)N1CCc2[nH]nc(C(F)(F)F)c2C1 (stereo not drawn),-6,-6
COc1cc2c(cc1OC)CN(S(=O)(=O)c1ccc(OC)c(N3CCN(C(=O)c4cc(F)ccc4F)CC3)c1)CC2,14,10
O=C1C(N2CCN(c3ccccc3Cl)CC2)CCN1C1CCOCC1 (stereo not drawn),-1,-5
CCCOc1ccc(N2C(=O)CC(NCc3ccco3)C2=O)cc1 (stereo not drawn),-7,-13
O=C(Cc1cccs1)NC1CCCN(CCc2ccccc2)C1 (stereo not drawn),6,4
Cc1c(NC(=O)c2cn[nH]c2-c2cccs2)cccc1C(=O)Nc1nccs1,20,14
CC(NCc1cn(C)nc1-c1ccc(Oc2ccccc2)cc1)c1ccccc1 (stereo not drawn),9&-2,6&-3
c1ccc2c(c1)nc1c3cn[nH]c3nnn21,-1,-5
Cn1ccn2ncc(C(=O)NCCSc3ccccn3)c12,-4,-14

# Random excerpt: seven compounds from above, in no set order.
SMILES,NPYLR7 ag,NPYLR7 ag max-min
Cc1c(NC(=O)c2cn[nH]c2-c2cccs2)cccc1C(=O)Nc1nccs1,20,14
Cn1ccn2ncc(C(=O)NCCSc3ccccn3)c12,-4,-14
Cc1cc(C)c2c(C3Oc4ccccc4C3O)cc(=O)oc2c1C (stereo not drawn),6,0
c1ccc2c(c1)nc1c3cn[nH]c3nnn21,-1,-5
CC(NCc1cn(C)nc1-c1ccc(Oc2ccccc2)cc1)c1ccccc1 (stereo not drawn),9&-2,6&-3
COc1cc2c(cc1OC)CN(S(=O)(=O)c1ccc(OC)c(N3CCN(C(=O)c4cc(F)ccc4F)CC3)c1)CC2,14,10
CCCOc1ccc(N2C(=O)CC(NCc3ccco3)C2=O)cc1 (stereo not drawn),-7,-13

# A portion of the library; count on the stated rates, not on these rows.
